# Sa growth inh = blocks Staphylococcus aureus growth. S. aureus RN4220 growth, OD600, 20 h, 42 °C; hits give low values. relative growth, % (no concentration beside the values). hit rate 0.53% among 170,000;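 active = growth at 42 °C up to 50% and 20 or more points under that at 30 °C, or under 10% at both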;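 note: 300 nL library stock went into each well; scaled to the means of positive and negative controls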
# HCMV NEC inh = disrupts HCMV UL50-UL53 complex binding; HTRF UL50-UL53 interaction, normalized percent inhibition; inhibition, % (test concentration not listed); hit rate 0.15% among 190,000;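 active = both replicates at 50% or more, plus weaker picks with an unusually low signal ratio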;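 note: stock transfer was 100 nL into about 20 µL; 0% = negative control wells and 100% = wells with untagged competitor protein; inactives centre near -12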
# GIV Gai3 FP = GIV-Galpha-i interaction inhibition; AID 1224905; P08753; hit rate 0.42% among 210,000; Galpha-i3/FITC-GIV peptide fluorescence polarization, 90 min; hits give low values; scaled: aluminum fluoride 0%, vehicle 100%; percent of control (FP), % (concentration not given with the values);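 active = replicate mean at 85% of control or lower, very high polarization wells dropped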;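 note: wells of about 15 µL received 100 nL stock; the first replicate is given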
# Target sequence (P08753 whole entry, looked up): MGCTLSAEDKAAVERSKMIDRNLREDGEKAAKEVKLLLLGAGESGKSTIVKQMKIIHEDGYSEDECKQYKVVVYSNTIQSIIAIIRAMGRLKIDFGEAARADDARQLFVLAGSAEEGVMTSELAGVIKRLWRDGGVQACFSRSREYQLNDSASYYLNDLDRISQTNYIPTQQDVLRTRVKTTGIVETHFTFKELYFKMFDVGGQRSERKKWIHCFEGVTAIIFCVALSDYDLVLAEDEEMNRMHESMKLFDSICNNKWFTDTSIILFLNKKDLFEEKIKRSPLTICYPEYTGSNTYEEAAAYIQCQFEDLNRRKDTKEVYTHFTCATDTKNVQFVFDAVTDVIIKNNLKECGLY
# Sa growth inh second temp = second read-out of Sa growth inh, no call of its own (marks repeat the call); relative growth, %; measured here: growth at 30 °C;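 optical density after 20 h as mean of two plates; 100% = untreated growth and lower means inhibition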
# Active calls of the source: *; . = no result given; & = joins results of further samples.
SMILES,Sa growth inh,Sa growth inh second temp,HCMV NEC inh,GIV Gai3 FP
CCc1ccc(NC(=O)CSC2=NN3CCCC(=O)N=C3S2)cc1,141,78,-18,103&103
Cc1cc(=O)n2nc(N3CCC(C(=O)NCc4ccccc4F)CC3)sc2n1,104,91,-16,103
C=CCn1c(SCC(=O)Nc2cc(C(=O)OC)cc(C(=O)OC)c2)nc2sc(C)c(C)c2c1=O,.,.,-11,104
Cc1ccc(-c2c[n+](-c3c4n(n(-c5ccccc5)c3=O)CCCCC4)c(C)n2C)cc1,125,80,-3,.
COc1ccc(-n2c(=O)c3ccccc3n(CC(=O)NC3CCCC3)c2=O)cc1,107,92,-9,110
Cc1ccc2cc(-c3noc(CCCC(=O)Nc4ccccc4)n3)c(=O)[nH]c2c1,.,.,-32,110
C=CCON1C(=O)CN(C(=O)Nc2ccccc2)C1c1ccccc1 (stereo unspecified),109,88,6,.
Cc1c(O)ccc2c(-c3ccccc3)cc(=O)oc12,98,86,-5&-59,102
CC1CCc2cc(F)ccc2N1C(=O)c1ccc(=O)[nH]n1 (stereo unspecified),81,88,-37,106
COc1ccc(NC(=O)CSc2nnc(-c3ccc(C)cc3)o2)cc1,102,92,.,106
CC(C)(CCO)NC(=S)NC1CC2C=CC1C2 (stereo unspecified),99,81,3,106
COc1ccc(Cl)cc1NC(=O)CSC1CCCC1,85,91,-14,.
Cc1cccc(-c2nc(CN3C(=O)COc4ccccc43)no2)c1,.,.,-28,112
O=C(NCCN1CCN(c2cccc(Cl)c2)CC1)Nc1ccc(Cl)cc1,99,96,.,111
CC1CCN(c2cc(N3CCC(C)CC3)c([N+](=O)[O-])cc2/C=c2/sc3nc4ccccc4n3c2=O)CC1,.,.,-18,101
Cc1cc(C)cc(NC(=O)Cn2c(=O)oc3cc(S(=O)(=O)N4CCCC4)ccc32)c1,100,102,10,100
Cc1ccc(NC(=O)C2CCCN2S(=O)(=O)c2cccc3nsnc23)cc1Cl (stereo unspecified),105,91,-88,107
Cc1cc(C(=O)CSc2ccccn2)c(C)n1Cc1cccs1,141,94,20,.
NNC(=O)c1cncc(C#Cc2ccccc2)c1,83,84,5,102
Cc1cc(C(=O)NCc2cccnc2)no1,94,89,.,106
CC(C)c1nn2c(=O)cc(COC(=O)c3ccc(NC(=O)CCc4ccccc4)cc3)nc2s1,111,89,.,102
CCN(CC)S(=O)(=O)c1ccc(N=Nc2c(O)[nH]c(=S)[nH]c2=O)cc1,92,86,-70,102
COC(=O)c1cc(C(=O)c2ccc(Cl)cc2Cl)cn1C,.,.,-6,112
CCOC(=O)c1ccc(NC(=O)CSc2nc3ncc(Br)c(C)c3[nH]2)cc1,93,89,.,98
Cc1c(Cl)cccc1NC(=O)c1ccc(C(=O)Nc2cccc(Cl)c2C)cc1,102,87,-36,102

# An excerpt of these results, as labelled records:
> Cc1ccc(-c2c[n+](-c3c4n(n(-c5ccccc5)c3=O)CCCCC4)c(C)n2C)cc1
  Sa growth inh: 125
  Sa growth inh second temp: 80
  HCMV NEC inh: -3
  GIV Gai3 FP: .

> COc1ccc(-n2c(=O)c3ccccc3n(CC(=O)NC3CCCC3)c2=O)cc1
  Sa growth inh: 107
  Sa growth inh second temp: 92
  HCMV NEC inh: -9
  GIV Gai3 FP: 110

# Additional structures.
SMILES,Sa growth inh,Sa growth inh second temp,HCMV NEC inh,GIV Gai3 FP
Cc1csc2nc(CSc3nc4cc([N+](=O)[O-])ccc4s3)c(Br)n12,.,.,-11,103
Cc1nnc(SCc2nc3ccccc3c(=O)[nH]2)n1C1CC1,85,91,-26,.
CC1=C(C(=O)Nc2ccc(C)cc2)C(c2cccnc2)n2ncnc2N1 (stereo unspecified),.,.,-18,103
Cc1cc(Br)ccc1OCC(=O)O,105,90,-3,.
CS(=O)(=O)N1Cc2ccccc2CC1C(=O)OCC(=O)c1ccc(Br)s1 (stereo unspecified),124,102,-5,.
CN(CCNC(=O)Cn1ncc2c1-c1ccccc1OC2)C1CCCCC1,94,86,.,101
CCN(CCCNc1nnc2c3ccccc3n(C)c2n1)c1cccc(C)c1,88,84,-23,100
COc1ccc(-c2cc(C(=O)NCCc3ccccc3)c3ccccc3n2)cc1,97,80,.,103
COc1cccc2cc(-c3nc(-c4ccccc4F)no3)c(=O)oc12,116,99,.,111
COc1ccc(NC(=NCc2ccncc2)NC(=O)c2ccc(CN3CCOCC3)cc2)cc1OC,.,.,1,101
COc1ccc(OCc2nnc3sc(-c4ccc(OC)c(OC)c4)nn23)cc1,.,.,-27,98
COc1ccc(CNC(=O)c2cc(-c3ccccc3)n[nH]2)cc1,103,107,20,100
CC1CC(=O)c2cnc(N3c4ccccc4CC3C)nc2C1 (stereo unspecified),.,.,-15,99
Cc1nc(-c2nnc(-c3ccc(C(F)(F)F)cc3)o2)cs1,103,103,-6,105
CCCc1cc(=O)n(-c2ccc(C(=O)O)cc2)[nH]1,96,74,-4,99
Cc1ccccc1NC(=O)c1ccccc1,95,77,-16,101
CCOc1cc(C)nc(N2CCC(C(=O)O)CC2)n1,.,.,-10,94
CC1CCCC(C)N1Cn1nc(-c2ccccc2)n(-c2ccccc2)c1=S (stereo unspecified),70,82,-22,.
O=C(C1CC1)N1CCC(c2nc(-c3ccc(Cl)cc3)no2)CC1,.,.,6,100
Nc1cc(C(=O)c2ccccc2)ccc1N1CCOCC1,85,86,-23,102
CCN(CC)C(=O)c1sc(NC(=O)c2cc(-c3ccc(Br)cc3)nc3ccccc23)c(C#N)c1C,.,.,-9,109
C=CCOC(=O)C1=C(C)Nc2[nH]c(=O)[nH]c(=O)c2C1c1ccc(O)cc1 (stereo unspecified),111,96,.,100
CCOC(=O)C1CCN(C(=O)CCS(=O)(=O)c2cc3c(cc2Cl)NC(=O)CO3)CC1,116,84,.,101
C=CCn1c(CCNC(=O)c2cccs2)nnc1SCC(=O)Nc1cccc(F)c1,100,98,-10,105
O=C1CSC(c2ccccc2)N1c1ccc(Cl)cc1 (stereo unspecified),88,86,25,101
SMILES,Sa growth inh,Sa growth inh second temp,HCMV NEC inh,GIV Gai3 FP
CCS(=O)(=O)c1ccc(NC(=O)c2ccccc2)c(O)c1,109,85,-16,.
CCOc1ccc(Br)cc1S(=O)(=O)n1cnc2ccccc21,110,94,-23,.
O=C(NCc1ccccc1Cl)c1ccc2oc(=O)n(Cc3ccccc3)c2c1,118,89,.,109
O=C(OCc1cc(=O)n2nc(-c3cccs3)sc2n1)c1cccc(Cl)c1,85,78,.,109
Cc1ccc(Sc2c(C)nn(C(=O)c3ccc(Br)cc3)c2C)cc1,97,97,-16,99
NNC(=O)CO/N=C/c1ccc(Cl)cc1Cl,95,87,-31,107
O=C(CNS(=O)(=O)/C=C/c1ccccc1)OC1CCOC1=O (stereo unspecified),91,97,-1,.
N#Cc1c(-c2ccccc2)cc(-c2cccs2)nc1SCS(=O)Cc1ccccc1 (stereo unspecified),103,98,.,100
CCC(=O)N1CCN(CCN=CC2=C(O)CC(c3ccccc3)CC2=O)CC1 (stereo unspecified),89,87,-11,104
OC1CCN(Cc2ccc(F)cc2)CC1,106,115,-6,103
Cc1nc(C(F)(F)F)c(C(N)=O)s1,.,.,-14,92
CC1CC(C)CN(C(=O)c2ccc(NC(=O)c3ccc(=O)[nH]c3)cc2)C1 (stereo unspecified),110,93,.,109
Cc1cc(C)cc(Nc2ncnc3sc4c(c23)CCCC4)c1,102,96,.,97
Cc1ccc(S(=O)(=O)CCC(=O)OCc2nnc(-c3ccccc3Br)o2)cc1,92,101,11,.
Cc1cccc(NC(=O)C2CCN(S(=O)(=O)c3cccc4nsnc34)CC2)c1,100,91,-36,104
Cc1noc(C)c1COC(=O)c1cccnc1SCC(=O)Nc1ccc2c(c1)OCO2,98,98,7,.
COc1cccc(-c2nnc3c4c5c(sc4ncn23)CCCC5)c1,.,.,4,108
Cc1cc(C)cc(C(=O)Nc2c(C(=O)Nc3ccccc3F)oc3ccccc23)c1,105,103,40,110
CCN(CC)C(=O)C1=C(C)Nc2nc3ccccc3n2C1c1ccc(Br)cc1 (stereo unspecified),95,90,-8,101
CC(=O)O/N=C/c1ccc(N(C)C)cc1,97,114,-10,101
O=C(c1cc2c(s1)-c1ccccc1S(=O)(=O)C2)N1CCC(Cc2ccccc2)CC1,.,.,-36,105
CC1=NN(C2=NS(=O)(=O)c3ccccc32)C(C)(O)C1 (stereo unspecified),76,68,-54,98
O=C(NCc1ccccc1Cl)c1ccc(-n2nc(OCc3ccc(Cl)cc3)ccc2=O)cc1,.,.,-18,108
O=C(Nc1cccc(-c2nc3ccccc3o2)c1)c1ccc(Br)cc1,87,86,-14,.
COc1ccc(NC(=O)c2oc3ccccc3c2NC(=O)C2c3ccccc3Oc3ccccc32)cc1,.,.,-22,97

# Single values from above:
# Sa growth inh second temp result of O=C(NCc1ccccc1Cl)c1ccc2oc(=O)n(Cc3ccccc3)c2c1 stands at 89
# Sa growth inh second temp result of O=C(OCc1cc(=O)n2nc(-c3cccs3)sc2n1)c1cccc(Cl)c1 stands at 78
# Sa growth inh second temp result of N#Cc1c(-c2ccccc2)cc(-c2cccs2)nc1SCS(=O)Cc1ccccc1 (stereo unspecified) stands at 98

# Additional entries
SMILES,Sa growth inh,Sa growth inh second temp,HCMV NEC inh,GIV Gai3 FP
COc1ccc2c(c1)-c1nc(NC(=O)c3ccc(Cl)cc3)sc1CC2,104,83,-52,109
CSc1nc(N/C=C2/C(=O)c3ccccc3N(C)S2(=O)=O)nc(C2CC2)n1,100,101,-8,107
Cn1c(=O)c(-c2noc(C(=O)N3CCCC3)n2)nn(-c2ccccc2)c1=O,.,.,-144,105
CN(C)/C=N/c1ncc(-c2ccc(Br)s2)s1,93,78,-48,110
CN(C(=O)C1CCCCC1)c1nc(-c2ccc(Cl)s2)cs1,89,92,-41,108
CC(=O)c1cccc(Nc2nn(-c3ccc(OC(F)(F)F)cc3)nc2C(C)=O)c1,101,89,-32,97
S=C(NCCN1CCOCC1)NCc1ccc2c(c1)OCO2,92,90,-28,.
O=C(Sc1ccccc1)c1cccc(=O)o1,43,32,-9,98
CCc1nc(C)cc(N)c1OCc1ccccc1,102,78,-22,100
Cc1sc2c(c1C)c(=O)n(-c1ccccc1)c1nnc(SCC(=O)c3ccccc3)n21,.,.,5,103
Cc1cc(C)c(NC(=O)CSc2ccc(-c3ccccn3)nn2)c(C)c1,105,91,.,113
Cc1nc2nc[nH]n2c(=O)c1NS(=O)(=O)c1ccc(CC(C)C)cc1,.,.,-28,96
C=CCNC(=O)C1=CC(c2ccc(OC)cc2)=NS(=O)(=O)N1C,99,97,.,105
Fc1ccc2c(c1)[C@H]1OCC[C@H]1[C@@H](c1ccco1)N2,100,86,-18,99
N#Cc1ccccc1N=C/C(Br)=C/c1ccccc1,67,48,-64,.
O=C1OC(c2nn3c(-c4ccco4)nnc3s2)Cc2ccccc21 (stereo unspecified),68,53,0,109
COc1cc(C(=O)Nc2ccc(S(=O)(=O)NC(C)C)cc2)cc(OC)c1OC,113,107,-7,109
CCc1ccc(Oc2coc3cc(OC(C)C(=O)OC(C)C)ccc3c2=O)cc1 (stereo unspecified),138,92,.,103
O=C(NCC1(c2ccccc2)CCCC1)C(=O)Nc1cccc(C(F)(F)F)c1,107,95,6,100
CNC(=O)CN1C(=O)c2ccccc2S1(=O)=O,101,84,.,103
Cc1ccc(Cn2cc(CCC(=O)NCc3ccccc3F)c3ccccc32)cc1,98,97,.,104
Cc1cc(C)cc(NS(=O)(=O)c2ccc(N3CCCCS3(=O)=O)cc2)c1,97,86,.,98
O=C(Nc1ccc(F)cc1F)c1cc2sc3ccccc3c2s1,.,.,-22,100
Cc1cc(=O)[nH]c2cc(-c3ccccc3)nn12,94,91,0,104
O=C(NCCC1=CCCCC1)c1ccc2c(c1)sc1nc(-c3ccc(F)cc3)cn12,123,89,.,105

# The last 6 records of the part above come first, to join the parts.
SMILES,Sa growth inh,Sa growth inh second temp,HCMV NEC inh,GIV Gai3 FP
CNC(=O)CN1C(=O)c2ccccc2S1(=O)=O,101,84,.,103
Cc1ccc(Cn2cc(CCC(=O)NCc3ccccc3F)c3ccccc32)cc1,98,97,.,104
Cc1cc(C)cc(NS(=O)(=O)c2ccc(N3CCCCS3(=O)=O)cc2)c1,97,86,.,98
O=C(Nc1ccc(F)cc1F)c1cc2sc3ccccc3c2s1,.,.,-22,100
Cc1cc(=O)[nH]c2cc(-c3ccccc3)nn12,94,91,0,104
O=C(NCCC1=CCCCC1)c1ccc2c(c1)sc1nc(-c3ccc(F)cc3)cn12,123,89,.,105
CCN(CC)C(=O)CN1C(=O)CCCc2ccccc21,.,.,-5,109
O=c1c2ccccc2n2cnnc2n1-c1ccccc1,117,83,-38,.
COc1ccc(/C=C2\C(=O)NC(=O)N(c3ccc(Br)cc3)C2=O)cc1,.,.,6,105
Cc1cc2c(c(=O)n1Cc1ccccn1)C(c1ccccc1)C(C#N)=C(N)O2 (stereo unspecified),102,77,.,104
CS/C(=C\C(=O)c1ccccc1)Nc1ccccc1Cl,94,95,11,112
CC(C)=CCCC1=NN(C=O)C(C)(CCC=C(C)C)C1 (stereo unspecified),79,85,-13,.
Cc1cc(=O)n2nc(N3CCCC(C(=O)NC4CCN(Cc5ccccc5)CC4)C3)sc2n1 (stereo unspecified),97,87,-8,103
Cc1cccc(Cn2c(=O)n(CCc3ccccc3)c(=O)c3sc4ccccc4c32)c1,111,89,-22,102
CC1CN(Cc2c(O)ccc3c2oc(=O)c2ccccc23)CC(C)O1 (stereo unspecified),95,80,.,110
CCc1ccccc1Nc1nn2c(=O)c3ccc(C(=O)NC(C)C)cc3nc2s1,112,86,.,103
Cc1nn2c(=O)cc(CSc3ccccc3C(=O)O)nc2s1,.,.,-7,99
NC(=O)C1CCN(c2c3c(nc4nncn24)CCC3)CC1,107,90,-14,102
